# GIV Gai3 FP: GIV-Galpha-i interaction inhibition | P08753 | Galpha-i3/FITC-GIV peptide fluorescence polarization, 90 min; active compounds read low; scaled: aluminum fluoride 0%, vehicle 100% | percent of control (FP), % (test concentration not listed) | hit rate 0.42% among 210,000 | AID 1224905;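 active = replicate mean at 85% of control or lower, very high polarization wells dropped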;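 also: lower values mean more displacement of the GIV peptide from Galpha-i3; wells of about 15 µL received 100 nL stock; the first replicate is given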
# Target sequence (P08753 whole entry, looked up): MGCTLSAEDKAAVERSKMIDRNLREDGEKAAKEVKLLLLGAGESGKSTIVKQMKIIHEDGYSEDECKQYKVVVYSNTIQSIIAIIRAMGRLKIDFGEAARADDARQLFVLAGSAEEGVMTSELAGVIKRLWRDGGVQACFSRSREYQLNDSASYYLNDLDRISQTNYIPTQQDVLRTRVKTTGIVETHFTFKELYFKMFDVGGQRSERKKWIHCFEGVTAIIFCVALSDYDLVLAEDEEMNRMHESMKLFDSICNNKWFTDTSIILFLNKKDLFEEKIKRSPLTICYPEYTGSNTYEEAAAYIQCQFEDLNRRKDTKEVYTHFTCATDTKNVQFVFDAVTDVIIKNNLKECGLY
# HCMV UL50-53 inh: cytomegalovirus nuclear egress complex inhibition; HTRF UL50-UL53 interaction, normalized percent inhibition; inhibition, % (no concentration beside the values); hit rate 0.15% among 190,000;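 active = both replicates at 50% or more, plus weaker picks with an unusually low signal ratio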;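 also: stock transfer was 100 nL into about 20 µL; 0% = negative control wells and 100% = wells with untagged competitor protein; inactives centre near -12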
# Sa growth inh: S. aureus growth inhibition; S. aureus RN4220 growth, OD600, 20 h, 42 °C; active compounds read low; hit rate 0.53% among 170,000; AID 720641; relative growth, % (concentration not given with the values);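 active = growth at 42 °C up to 50% and 20 or more points under that at 30 °C, or under 10% at both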;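 also: 300 nL library stock went into each well; scaled to the means of positive and negative controls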
# Sa growth inh second temp: further read-out of Sa growth inh, marked with its call; relative growth, %; measured here: growth at 30 °C;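 optical density after 20 h as mean of two plates; 100% = untreated growth and lower means inhibition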
# * hit, by the source's call; nt = not tested or not shown.
compound,Sa growth inh second temp,GIV Gai3 FP,Sa growth inh,HCMV UL50-53 inh
CC1=C(C(=O)Nc2ccccn2)C(c2ccc(C)cc2)C2=C(CC(C)(C)CC2=O)N1 (stereo unspecified),77,107,110,nt
CCSCC1COC(c2cn(CC)c3ccccc23)=N1 (stereo unspecified),37,109,61,-11
CCc1cccc(NC(=O)C2=C(C)C(=O)OC23CCCCC3)c1,93,103,95,nt
Cc1ccc(NC(=O)CN2C(=O)C(C)(C)Oc3ccc(C(=O)N4CCCC4)cc32)cc1,75,106,110,-32
Cc1cccc(OCc2nc(CC(=O)Nc3ccc(C)c(C)c3)cs2)c1,88,102,97,-27
Cc1ccc(-n2nc(SC(C)C(=O)Nc3ccc(S(N)(=O)=O)cc3)ccc2=O)cc1C (stereo unspecified),nt,104,nt,-45
O=c1c2ccccc2c2nc3c(=O)c4ccccc4c3nc12,50,103,97,-36
CC(=O)NN1C(=O)/C(=C2\C(=O)N(C)c3ccccc32)SC1=S,88,98,74,nt
O=C(c1c[nH]c2ccc(S(=O)(=O)Nc3ccccc3F)cc2c1=O)N1CCOCC1,98,104,81,nt
COc1ccccc1Cn1c(CNS(=O)(=O)c2ccc(CC(C)C)cc2)nc2cccnc21,90,105,95,nt
O=C(/C=c1/[nH]c(=O)/c(=C/c2cccc(C(F)(F)F)c2)s1)c1ccco1,83,nt,82,-31
O=S(=O)(NCc1ccccc1)c1ccc(Cl)cc1,85,100,98,-26
CCOC(=O)c1c(NC(=O)c2ccc(Cl)cc2Cl)n[nH]c1N,89,nt,103,-37
COc1ccccc1C(=O)N1CCN(Cc2cc(=O)oc3cc(C)ccc23)CC1,65,105,102,-8
O=C(O)CCCN=CC1=C(O)CCCC1=O,87,97,93,-20
CCOC(=O)CSc1nn(-c2ccccc2)c(=S)s1,85,103,105,-2
COC(=O)c1cc(S(=O)(=O)NCCCN2CCN(Cc3ccccc3)CC2)cn1C,91,104,105,-17
Cc1cccc(-c2csc(-c3nc(-c4cccc(Cl)c4)no3)c2-n2cccc2)c1,nt,100,nt,-31
Cc1ccccc1CN1C(=O)C(O)(CC(=O)c2ccccc2)c2cc(Cl)ccc21 (stereo unspecified),92,98,95,nt
CSc1ccc(C(=O)CCC(=O)OCc2ncc(-c3ccccc3)o2)cc1,84,nt,88,-6
O=C1NCCCC1C(=O)Nc1ccccc1C(F)(F)F (stereo unspecified),88,98,108,nt
Cn1cnc(S(=O)(=O)Nc2ccc(C#N)cc2)c1,89,99,89,-18
CCC1Oc2ccc(C)cc2N(Cc2ccc(F)cc2)C1=O (stereo unspecified),71,102,95,-12
CC(=O)Oc1ccc(-c2ccc(C(=O)O)cc2)cc1Cl,88,nt,107,-27
CCN(CC)CCCNC(=O)c1ccc2c(Cl)c3c(nc2c1)CCCC3,80,100,110,-108
COc1ccc(C2C=C(c3cccnc3)Nc3nc4ccccc4n32)cc1 (stereo unspecified),81,110,102,-19
O=C(NC1CCCC1)N1CCc2cc(S(=O)(=O)Nc3ccc(Cl)cc3)ccc21,nt,105,nt,-27
c1cncc(-c2noc(-c3cc(-c4ccco4)n[nH]3)n2)c1,77,110,102,-29
CCOc1ccc(CCNC(=O)c2ccc(CS(=O)(=O)c3ccccc3C)o2)cc1OCC,84,100,97,-17
Cc1c(N=C2C(=O)N(C(C)C)c3ccccc32)c(=O)n(-c2ccccc2)n1C,95,nt,97,-18
O=c1cc(CSc2nc3ccccc3o2)occ1O,71,nt,65,-42
CCN(C)CC12CC3CC(CC(C3)C1)C2,95,99,88,nt
CCCCc1nc2ccccc2n1CC(=O)Nc1sc2c(c1C(N)=O)CCCC2,97,nt,83,-18
Cc1ccc(N)cc1N(C)C,87,103,108,3
CCc1ccc(-n2cnc3ccccc3c2=O)cc1,99,116,98,-12
CCOC(=O)C1CCCN(C(=O)c2sc3nc(-c4ccc(OC)cc4)cn3c2C)C1 (stereo unspecified),68,97,96,nt
CN(C)CCn1c(=O)c2[nH]cnc2n(C)c1=O,87,100,112,nt
Cc1ccc(Nc2sc(C(=O)c3ccccc3)c(N)c2S(=O)(=O)c2ccccc2)c(C)c1,84,106,99,-29
CCOc1ccc(NC(=O)c2c(C)oc3nc(C)nc(N4CCOCC4)c23)cc1,87,99,81,nt
CC(C)OC(=O)Cn1cnc2ccc(Br)cc2c1=O,80,97,78,nt
CCc1nnc2c(NCCc3ccc(OC)c(OC)c3)nc3ccccc3n12,89,112,97,0
CSCCC(C(=O)N1CCN(S(=O)(=O)c2ccccc2C#N)CC1)N1C(=O)c2ccccc2C1=O (stereo unspecified),99,nt,96,-4
CSc1ccccc1NC(=O)CN(C)CN1C(=O)C2CC=CCC2C1=O (stereo unspecified),81,nt,100,-24
CCOC(=O)C1CCCN(S(=O)(=O)c2ccc3[nH]c(=O)oc3c2)C1 (stereo unspecified),90,102,106,-39
Cc1ccc(-c2cc(C(=O)Oc3ccccc3)c3cc(C)ccc3n2)cc1,94,105,104,-44
C#CCSc1nc2c(c(=O)[nH]1)C(c1cc(Br)ccc1OC)CC(=O)N2 (stereo unspecified),nt,106,nt,-9
OCc1ccc2ccccc2n1,95,nt,79,-36
COc1ccc(NC(=O)CNc2cccc(Oc3ccccc3)c2)cc1,101,nt,119,3
CCOc1ccc(NC(=O)c2cc(C)nc3c2c(C)nn3-c2cccc(F)c2)cc1,84,99,80,nt
CCN(CC)S(=O)(=O)c1ccc(N2CC(O)=C(c3nc4ccccc4c(=O)[nH]3)C2=N)cc1,nt,136,nt,-16
COc1ccc2cc3cc(C(=O)N(C)c4cccc(C)c4)oc3nc2c1,90,107,114,nt
COC(=O)C(Cc1ccccc1)NC(=O)c1cccc(S(=O)(=O)N(C)C)c1 (stereo unspecified),94,nt,103,-22
Cc1ccc(COC2CN(S(=O)(=O)c3ccc(C)cc3)C2)cc1,nt,97,nt,-18
COc1ccccc1N1CCN(C(=O)c2ccc3[nH]c4c(c3c2)CCCC4)CC1,98,nt,110,13
Cc1nn2cc(-c3ccc(N)cc3)nc2s1,80,nt,94,1
O=S(=O)(Cc1ccccc1)Nc1cccnc1,81,102,87,nt

# The results go on:
compound,Sa growth inh second temp,GIV Gai3 FP,Sa growth inh,HCMV UL50-53 inh
CC(C)CCn1c(=O)c2sccc2n2c(SCC(=O)N3CCCC(C)C3)nnc12 (stereo unspecified),nt,104,nt,19
CCOC(=O)c1sc(SC)c(-c2ccccc2)c1N,85,101,81,-8
COC(=O)c1ccc(C(=O)OC)c(NC(=O)N2CC3CCCN3c3ccccc32)c1 (stereo unspecified),93,104,104,nt
COc1ccc(C(=O)N2c3ccc(C)cc3C(C)(c3ccccc3)CC2(C)C)cc1 (stereo unspecified),90,103,92,-60
CCCn1c(=S)[nH]c2sc3c(c2c1=O)CCCC3,67,nt,102,14
Cc1ccc(NC(=O)CC2Oc3ccc(C)cc3NC2=O)c(C)c1 (stereo unspecified),92,101,110,-11
Cc1c(C(=O)NC(=S)Nc2ccc(Br)cn2)oc2ccccc12,81,103,104,nt
CC1Sc2ccc(C(=O)O)cc2NC1=O (stereo unspecified),98,nt,106,-4
Cc1cc(N)c2ccccc2n1,81,99,87,-23
CCc1nn(CC(=O)NCCN(CC(C)C)CC(C)C)c(=O)c2cc3sc(C)cc3n12,85,91,89,-9
Cc1ccc(C(=O)N/N=C2\CC3CC=CC23)c(C)c1 (stereo unspecified),85,nt,80,-8
CCN(CC)C(=O)c1sc2c(c1C)c(=O)n(-c1ccc(OC)cc1OC)c(=O)n2CC(=O)c1ccc(Cl)cc1,99,105,125,nt
COc1nccn(-c2ccc(Cl)cc2)c1=O,nt,104,nt,-72
O=C(CSCc1ccc(F)cc1)N1CCN(c2ccccc2F)CC1,87,100,96,nt
N#CNC(=Nc1ccccc1)Oc1ccccc1,86,100,101,1
Cc1cc2c(cc1S(=O)(=O)N1CCCC(C(=O)NC3CCCCC3)C1)OCC(=O)N2 (stereo unspecified),nt,97,nt,-16
CC(Sc1n[nH]c(N)n1)C(=O)Nc1ccccc1 (stereo unspecified),99,nt,115,4
CCCCOc1ccc(C2Oc3ccc(Br)cc3C3CC(c4ccc(OC)cc4)=NN32)cc1 (stereo unspecified),nt,106,nt,-13
S=c1nn[nH]n1C1CC2CC1C1C=CCC21 (stereo unspecified),89,105,95,-38
COc1cccc2c1cc1c(=O)n(CC(=O)N3CCC(C)CC3)nc(C)n12,92,98,137,-66
Cc1ccc(/C=[N+](\[O-])c2ccc(N(C)C)cc2)c2nsnc12,57,195,80,-89
CC(C)CCNC(=O)CCc1nc2sc3c(c2c(=O)[nH]1)CCC(C(C)(C)C)C3 (stereo unspecified),nt,94,nt,-11
Cc1cc(=O)oc2cc(OCC(=O)N3CCOCC3)ccc12,76,101,107,-4
Cc1cc(Cl)ccc1NS(=O)(=O)c1ccc2c(c1)CCN2S(C)(=O)=O,83,102,104,nt
CN1C(=O)/C(=C\c2cccc(C(F)(F)F)c2)c2ccccc21,86,nt,67,-24
COc1ccc(C(CNS(=O)(=O)c2cccc(C(=O)O)c2)N2CCCC2)cc1 (stereo unspecified),88,nt,94,-33
CCn1c(=O)n(Cc2ccc3c(c2)OCO3)c(=O)c2oc3ccccc3c21,96,99,92,-32
CC(C)(ONC(=O)Nc1ccccc1Cl)C(=O)O,96,111,114,20
COC(=O)c1ccsc1NC(=O)Nc1cc2c(cc1N1CCCCC1)n(C)c(=O)n2C,nt,102,nt,-20
Cn1c(=O)c2c(nc(NCc3ccc4c(c3)OCO4)n2Cc2ccc(Br)cc2)n(C)c1=O,nt,107,nt,-16
CCCC(=O)Nc1cc(C)c(NC(=O)CCC)cn1,89,107,111,-9
CC(C)(C)NC(=O)CN1CCN(c2ccc(NC(=O)C3CCCC3)c(C(=O)O)c2)CC1,nt,98,nt,-9
O=C(c1cc(C2CC2)on1)N1CCCC1c1ccccc1F (stereo unspecified),nt,107,nt,1
COCCCn1c(=N)c(C(=O)NCC2CCCO2)cc2c(=O)n3cc(C)ccc3nc21 (stereo unspecified),90,104,102,-124
CCCn1cc(S(=O)(=O)c2ccc(OC)cc2)c(=O)c2cc(F)c(N3CCCCCC3)cc21,93,111,110,nt
CCNS(=O)(=O)c1cc(OC)c(Cl)cc1OC,96,105,115,2
c1cc(CNC2CCCCC2)co1,94,100,111,-17
Cc1c2cnn(-c3ccccc3)c(=O)c2c(C)n1C(C)C(=O)Nc1ccccc1C(F)(F)F (stereo unspecified),94,105,107,-1
COc1ccccc1Nc1nc(-c2ccccc2)c2cc(Cl)ccc2n1,87,nt,98,-4
Cc1ccc(C(=O)COc2ccccc2O)cc1,80,nt,99,-16
Cc1ccc2c(c1)NC(C1CC1)=NC(c1ccc(F)cc1)=N2,93,108,100,-8
O=C(O)C1=CC(/C=C/c2ccccc2)n2ncc(C(=O)Nc3ccccc3)c2N1 (stereo unspecified),nt,103,nt,-64
COc1cc(C(=O)OC(C)C#N)cc(Br)c1O (stereo unspecified),87,nt,101,-13
Cc1ccccc1OCCn1c(CCCNC(=O)C2CCCCC2)nc2ccccc21,74,98,96,nt
CC(=O)Nc1ccc(C(=O)CSc2nnc(-c3cccc(Br)c3)o2)cc1,93,98,102,-2
Cc1onc(-c2ccccn2)c1C(=O)N1CCCCC1,nt,101,nt,-3
CCn1nc(-c2cccs2)cc1C(=O)Nc1ccccc1,81,99,107,5
Cc1nc(-c2cccc(N3CC(C(=O)Nc4ccc(C(C)C)cc4)CC3=O)c2)no1 (stereo unspecified),nt,100,nt,-7
CCCCOc1cccc(C(=O)Nc2cc3nn(-c4ccc(F)cc4)nc3cc2C)c1,89,108,100,-6
CC(=O)N1c2ccc(S(=O)(=O)N3CCN(c4cccc(Cl)c4)CC3)cc2CC1C (stereo unspecified),104,107,78,-5

# Compound activity: PubChem, ICCB-Longwood Screening Facility, Harvard Medical School
